# Screening data as filed in PubChem BioAssay.
# NPR1 antag = human Npr1 receptor antagonism; P16066; HEK293 hNpr1 GloSensor cGMP, ANP-stimulated luminescence; Potency, µM (top dose mostly 46.3 µM), inactives show at the highest dose activity change, negative = inhibition, usual class: inhibitors; hit rate 1.6% among 76,000; AID 1347048; active = well fitted inhibition curve with a large enough effect; inconclusive = small, poorly fitted or top-dose-only effect; inactive = no such curve, though single readings can be large or run the other way;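 note: nearly all actives have a fitted effect of over 60% in size; nearly all hits also lower the signal before the agonist is added; a reference antagonist and vehicle were the controls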
# Target sequence (P16066 whole entry, looked up): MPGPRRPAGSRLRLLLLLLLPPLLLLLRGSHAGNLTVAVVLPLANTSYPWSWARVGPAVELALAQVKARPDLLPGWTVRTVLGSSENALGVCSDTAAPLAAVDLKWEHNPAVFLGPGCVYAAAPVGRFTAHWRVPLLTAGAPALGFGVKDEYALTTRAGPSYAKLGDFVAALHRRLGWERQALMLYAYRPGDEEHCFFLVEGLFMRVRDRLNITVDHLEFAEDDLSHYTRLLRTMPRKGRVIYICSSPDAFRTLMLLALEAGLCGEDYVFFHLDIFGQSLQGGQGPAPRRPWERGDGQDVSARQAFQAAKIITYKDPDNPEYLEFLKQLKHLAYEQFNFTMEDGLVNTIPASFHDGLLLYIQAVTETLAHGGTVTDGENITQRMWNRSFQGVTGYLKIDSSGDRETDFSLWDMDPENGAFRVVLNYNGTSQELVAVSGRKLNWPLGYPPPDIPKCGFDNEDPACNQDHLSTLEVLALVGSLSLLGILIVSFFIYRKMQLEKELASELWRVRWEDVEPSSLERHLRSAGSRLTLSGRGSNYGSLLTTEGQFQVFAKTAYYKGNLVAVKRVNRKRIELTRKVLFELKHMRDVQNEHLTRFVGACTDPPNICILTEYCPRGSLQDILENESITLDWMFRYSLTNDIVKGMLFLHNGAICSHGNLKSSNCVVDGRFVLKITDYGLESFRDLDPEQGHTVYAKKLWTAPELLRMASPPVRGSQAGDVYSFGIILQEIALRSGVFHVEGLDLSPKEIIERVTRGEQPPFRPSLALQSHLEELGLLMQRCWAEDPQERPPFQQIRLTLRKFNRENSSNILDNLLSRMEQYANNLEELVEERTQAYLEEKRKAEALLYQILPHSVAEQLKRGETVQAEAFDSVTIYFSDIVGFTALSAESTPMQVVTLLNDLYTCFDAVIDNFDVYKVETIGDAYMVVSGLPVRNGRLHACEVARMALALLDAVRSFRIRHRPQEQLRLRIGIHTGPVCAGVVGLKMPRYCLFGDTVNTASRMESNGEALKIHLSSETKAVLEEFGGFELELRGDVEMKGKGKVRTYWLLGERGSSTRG
#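 Compound pre-incubated 30 min at room temperature on GloSensor-loaded HEK293 cells stably carrying hNpr1 and the pGS-40F cGMP biosensor. Stimulation uses hNppA at 0.1 nM final; luminescence is taken at baseline and 20 min post-agonist.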
# An asterisk follows results filed as active; ? = inconclusive; [ ] = dose if it differs, or a comment. % is set by controls: 0 for no effect and ±100 for the full control effect; potency is the fitted concentration of half-maximal effect. Only part of the results is shown (hit frequency here may not be typical).
mol	NPR1 antag
O=C1CC(c2ccccc2)N(C(=O)C2CC2)CCCN(C(=O)c2cc3ccccc3[nH]2)CCN1 (centres undefined)	-1.5%
CCC1=C(C(=O)OC)C(c2ccccc2OC)N2C(CC(=O)N3CCCCC3C)=CSC2=N1 (centres undefined)	-18.8%
O=C(c1cc(COc2cccc(F)c2)[nH]n1)N1CCC(N2CCSCC2)CC1	3.1%
CC1=C[C@@H](CNS(C)(=O)=O)[C@H](C(C)C)C[C@H]1Cc1nc2ccccc2n1C	28.2µM*
C=CCNC(=O)C(NC(=O)c1cccc(OC)c1)C1CCN(C(=O)C2CCCC2)CC1 (centres undefined)	2.0%
Cc1cccc(NC(=O)Cn2c(-c3ccc(F)cc3)nc(C)c(CCO)c2=O)c1C	1.9%
O=C(c1cc[n+]([O-])cc1)N1CCC2(CCCN(Cc3cccc(F)c3F)C2)C1 (centres undefined)	4.7%
CNC(=O)[C@@H]1CN(C(=O)c2cscn2)C[C@H]1c1nc(COC)no1	-0.7%
CC(=O)Nc1ccc2c(c1)CCC(=O)N2CC(C)C	0.0%
COCc1ccc(C(=O)N2CCCN(C)C3(CCN(C)CC3)C2)o1	2.7%
Cn1c(-c2nc(-c3cn4ccccc4n3)no2)cc(=O)n(C)c1=O	0.9%
CC(C)CCNC(=O)c1cnc2n1CCN(Cc1cccc(OC(F)(F)F)c1)CC2	?
COCCNC(=O)[C@H]1C[C@H](Oc2ccccc2)CN1S(=O)(=O)c1ccccc1	-2.6%
COCCC(=O)N1CCc2c(n(Cc3ccc(OC)cc3)n(Cc3ccccc3)c2=O)C1	4.3%[70.6 µM]
CC1(CNc2ccccc2)COc2ccc(C(=O)NCc3cccnc3)cc2N1 (centres undefined)	-5.5%[70.6 µM]
Cc1ccc(NC(=O)Cn2cccc2-c2nc(-c3ccc(F)cc3)no2)c(C)c1	-1.9%
COC(=O)COc1ccc(C(=O)N[C@@H]2CN(C(=O)Nc3ccc(F)cc3)CCC[C@H]2O)cc1	-14.0%
Cn1nc(C(=O)Nc2cccc(-c3nnc4n3CCCC4)c2)c2ccccc21	-9.9%
Cc1nnc2n1CCC(N(C)C(=O)c1cc(C3CC3)[nH]n1)CC2 (centres undefined)	6.5%
CCn1nc(CC(C)C)cc1C(=O)N1CCN(S(=O)(=O)CC)CC1	4.7%
COc1cc(NC(=O)O[C@@H]2CC[C@]3(C)C(CC[C@@H](O)[C@H]3CC(=O)N3CC[C@@H](O)C3)[C@]2(C)CO)cc(OC)c1OC (some centres undefined)	1.1%
O=C1CCN(C(=O)CCc2nc3ccccc3s2)CCCCCCN1	-10.8%
COC(=O)c1ccc2nc(CO[C@H]3CN(Cc4cccc(C#N)c4)C[C@H]3F)[nH]c2c1	-3.1%[70.6 µM]
CC(C)CCNC(=O)N1CCC2(CC1)C(=O)N(C)c1ccccc12	1.4%
CN(Cc1cccnc1)C(=O)CCC1CCCN(S(=O)(=O)c2ccccc2)C1 (centres undefined)	-17.1%

# Continued.
mol	NPR1 antag
O=C(NCCc1ccccn1)c1ccc2c(c1)OCCN(c1ccccc1)C2	1.0%[70.6 µM]
O=C1Cc2c(-c3ccsc3)n[nH]c2CN1CC1CC1	3.1%[70.6 µM]
Cc1ccc(CN2CCC3(CC2)CCN(Cc2ccco2)CC3CO)s1 (centres undefined)	14.5%
CC(O)CNC(=O)C1CCN(c2nc(-c3ccccc3)nc3c2CCC3)CC1 (centres undefined)	-18.1%
CC(=O)c1ccc(NC(=O)N2C[C@@H]3C[C@H](C2)c2ccc(NC(=O)CN(C)C)c(=O)n2C3)cc1	3.1%
COc1ccc(C(O)C(=O)N2CCC3(CCC(=O)N(C4CC4)C3)CC2)cc1 (centres undefined)	6.8%
COC1CN(C2CCN(C(=O)c3cccnc3)CC2)C12CCOCC2 (centres undefined)	-2.5%
COC[C@@H]1[C@H](NC(=O)c2cc(-c3ccccc3OC)n[nH]2)[C@@H]2CCO[C@H]12	4.1%
CC(=O)Nc1ccc(C2(C(=O)NCc3ccccc3Cl)CCC2)cc1	-3.6%
CCCS(=O)(=O)N1C[C@@H](Oc2ccccc2)C[C@H]1C(=O)NC	-4.9%
COC(=O)CC[C@H]1CNC(=O)[C@@H]2[C@@H](CCN2Cc2csnn2)N1C	0.0%[70.6 µM]
COc1ccc(NC(=O)O[C@@H]2CO[C@H]3[C@@H]2OC[C@@H]3NCc2ccc(-c3ccccc3)cc2)cc1	5.62µM*
COc1ccc(C(=O)NCCc2noc(-c3ccncc3)n2)cc1	-3.2%
O=C(c1n[nH]c2ccccc12)N1CCC(N2C(=O)C(OCC3CC3)C23CCCCC3)CC1 (centres undefined)	5.8%
O[C@H]1CC[C@@H](Cc2cc(COc3ccccc3)on2)O[C@@H]1CNCc1cccc(Cl)c1	-0.9%
COc1ccc(CN2CCN(Cc3cc4ccccc4[nH]3)CC2CCO)c(C)c1C (centres undefined)	-22.1%
CCOC(=O)C1CCCCN1C(=O)c1oc2c(Cl)cc(C)cc2c1C (centres undefined)	2.7%
Cc1cc(-c2ccnc(-c3nnc(C)n3CCN3CCOCC3)c2)ccn1	1.2%[70.6 µM]
O[C@@H]1CC(CNC2CCC2)(COc2cnccn2)C[C@@H]1O (some centres undefined)	6.4%[70.6 µM]
COC(=O)N1CCC2(CC1)C(=O)NN=C2c1ccncc1	-10.4%[70.6 µM]
COCCC(=O)N1C[C@@H]2CCCN3CCC[C@@H]([C@H]23)[C@H]1CCCC(=O)NCC1CC1	-7.7%
COCCNc1nc(-c2c(C)noc2C)cc2cc(C(C)C)oc12	1.7%[70.6 µM]
CS(=O)(=O)c1cnc(NC2CCCC2)nc1C1CCCNC1 (centres undefined)	1.5%
Cc1ccc(-c2nccc3c(=O)cc(-c4cn[nH]c4)oc23)cc1	4.8%[70.6 µM]
COc1ccc(C(=O)N2CCc3nc(-c4ccc(Cl)cc4)nc(-c4ccccc4)c3C2)cc1	6.1%

# 4 compounds from above, sorted by their value in NPR1 antag, lowest first:
mol	NPR1 antag
O=C1CC(c2ccccc2)N(C(=O)C2CC2)CCCN(C(=O)c2cc3ccccc3[nH]2)CCN1 (centres undefined)	-1.5%
CNC(=O)[C@@H]1CN(C(=O)c2cscn2)C[C@H]1c1nc(COC)no1	-0.7%
CC(=O)Nc1ccc2c(c1)CCC(=O)N2CC(C)C	0.0%
COc1cc(NC(=O)O[C@@H]2CC[C@]3(C)C(CC[C@@H](O)[C@H]3CC(=O)N3CC[C@@H](O)C3)[C@]2(C)CO)cc(OC)c1OC (some centres undefined)	1.1%

# Structures listed above that bear a hit mark in NPR1 antag.
mol	NPR1 antag
CC1=C[C@@H](CNS(C)(=O)=O)[C@H](C(C)C)C[C@H]1Cc1nc2ccccc2n1C	28.2µM*
COc1ccc(NC(=O)O[C@@H]2CO[C@H]3[C@@H]2OC[C@@H]3NCc2ccc(-c3ccccc3)cc2)cc1	5.62µM*

# (continued)
mol	NPR1 antag
Cn1cc(-c2cc(=O)c3ccnc(Nc4ccc5[nH]ccc5c4)c3o2)cn1	-1.1%[70.6 µM]
Cn1cc(-c2cnc3[nH]cc(CC(=O)NCc4ccncc4)c3c2)cn1	0.2%[70.6 µM]
COc1ccc(S(=O)(=O)NCCNc2cc(C)nc3ccnn23)cc1	-13.5%
CC(C)(C)C(=O)N1CCN(CCC(=O)Nc2ccc(C(N)=O)cc2)CC1	1.7%
O=C(CCC[C@H]1NC[C@@H]2CC1CN(Cc1ccccc1)C2)N1CCC(N2CCCCC2)CC1	1.6%
CC(=O)c1[nH]c(C)c(C(=O)N2CCN3C(=O)CNC(=O)C3C2)c1C (centres undefined)	0.4%
COc1ccc(-c2cc(N3CCC(NC(=O)c4cccc(N(C)C)c4)C3)n[nH]2)cc1 (centres undefined)	-19.3%
COc1cc2c(c(OC)c1OC)C(c1cc3c(cc1Cl)OCO3)CC(=O)N2 (centres undefined)	2.5%
CC1=C[C@@H](CNC(=O)Nc2ccc(F)cc2)[C@H](C(C)C)C[C@H]1Cc1nc2c(C)cccc2[nH]1	-22.7%
CCOC(=O)c1ccc(NC(=O)Cn2c(=O)n(CC)c(=O)c3c2cc(C)n3C)cc1	-0.5%
Cc1cccc(CN2CCCC(COc3ccccc3C(=O)N3CCCC3)C2)c1 (centres undefined)	3.4%
COCC(=O)N[C@@H]1CN(C(=O)CCCc2ccccc2)CC[C@@H]1c1nc(C)no1	2.2%
Cc1cccc(C(=O)N2CC[C@H]3C(=O)NCCCCCCN(Cc4ccncc4)[C@@H]3C2)c1	-3.9%
CNC(=O)c1cccc(-c2cnc(NC(=O)Cc3ccccc3)c3c2CCO3)c1	8.91µM*
N#Cc1cccc(C(=O)N2CCCCCCNC(=O)[C@@H]3C[C@@H](c4nc(-c5cnccn5)no4)C[C@@H]32)c1	-3.3%
O=C(c1ccsc1)N1CCCC(n2cc(-c3nc(C4CC4)no3)nn2)C1 (centres undefined)	-13.7%
COc1ccc(CC(=O)N2CC(CO)C3(CCNCC3)C2)cc1OC (centres undefined)	3.5%
CC(CCc1ccco1)NC(=O)CN1CCCc2nc(-c3ccccc3)ncc2C1=O (centres undefined)	?
O=C(CCC1CCCN(S(=O)(=O)c2ccccc2)C1)NCC1CCCCC1 (centres undefined)	?
CCCCc1cc(C[C@@H]2C[C@H](NC(C)=O)C2(C)C)no1	4.1%[70.6 µM]
C[C@H]1[C@@H]2[C@H]3OC(=O)[C@@H](C)[C@@H]3CC[C@@]2(C)CC[C@@H]1NS(C)(=O)=O	-6.3%[70.6 µM]
COc1cccc(NC(=O)Cn2c(N3CCC(C)CC3)nc(C)cc2=O)c1	?
COc1ccc(-c2noc(C(=O)N3CCC3)c2[C@H](C)O)cc1	7.1%[70.6 µM]
Cc1ccc(-n2nc(C)c([C@H]3C=C[C@@H](O)C3)c2C)cc1Cl	17.8µM*
COCc1ccc2c(c1)c(OC(C)(C)C(=O)NCCc1ccccn1)nn2CCC(C)C	1.1%[70.6 µM]

# Further records
mol	NPR1 antag
C/C=C(\C)CN1C[C@@H](NC(=O)Cn2ccnc2C)C[C@H]1C(=O)NCC	-1.6%
Cn1nc(C2CCN(C(=O)c3nccc4ccccc34)CC2)c2c1CCOC2	4.3%
CC(C)CCNC(=O)C1CC(=O)N(c2n[nH]c3cc(Br)ccc23)C1 (centres undefined)	0.5%
COCCNC(=O)[C@@H]1C[C@@H](O)CN1C1CCN(C(=O)c2cccc(C)c2)CC1	0.9%
CC(C)(C)NC(=O)N1CCCC1c1nc(CCOc2ccc(F)cc2)no1 (centres undefined)	5.0%
COCCOC1CCN(C(=O)CCc2cccc(OC)c2)CC1	0.0%
COc1ccc(-c2cc(N3CCCC(NC(=O)C4CCCC4)C3)n[nH]2)cc1 (centres undefined)	-25.1%
O=C(Nc1cccc(Br)c1)C1CCN(c2cc(C(F)(F)F)ncn2)CC1	11.2µM*
CCOCCn1nc(C)cc1C(=O)N1C[C@@H](CN2CCCCC2)[C@@H](CO)C1	6.9%
O=C(c1ccc(Cl)s1)N1CCC(c2nc(-c3ccccc3)no2)C1 (centres undefined)	?
CCc1ccc(C(=O)N2CCC[C@H]2c2nc(-c3ccc(OC)c(OC)c3)no2)cc1	-12.4%
Cn1ccc2c(C(=O)NCc3cccnc3)nc(-c3cccc(N4CCOCC4)c3)cc21	-20.6%[70.6 µM]
COCCNC(=O)C1COC2(CCN(C(=O)c3cccc(OC)c3)CC2)N1C(=O)c1ccccc1 (centres undefined)	-0.3%
O=C(c1ccsc1)N1CCC(O)(c2ccccc2)[C@H](N2CCCC2)C1 (some centres undefined)	0.4%
COc1cccc(C(=O)N2CC(c3nnc(C(C)C)o3)C3(CCOCC3)C2)c1OC (centres undefined)	1.4%
CCC1CN(CCNC(=O)Cc2c(F)cc(F)cc2F)Cc2cc(OC)ccc2O1 (centres undefined)	2.4%
COCC(=O)NC[C@H]1CCN(Cc2ccc(C#N)cc2)C[C@H]1N(C)C	0.0%
CC1(c2ccccc2)N(Cc2ccc(O)cc2)C(=O)OC12CCN(Cc1cccnc1)CC2 (centres undefined)	-13.8%
Cc1noc(C)c1S(=O)(=O)N1CCCN(Cc2ccncc2)C(c2ccccc2)CC(=O)NCC1 (centres undefined)	-8.0%
O=C(CCn1cc(Cl)cn1)N1CCOC(c2ccc(Cl)cc2)C1 (centres undefined)	?
COc1ccccc1C(=O)NC1CCN(c2cn[nH]c(=O)c2)CC1	-1.7%
O=C1NCCCCCCN(C(=O)Nc2ccccc2)[C@H]2C[C@H](c3nc(Cc4ccccc4)no3)C[C@@H]12	3.4%
Cc1cccc(-c2ccccc2C(=O)N2CCCC(CO)(Cc3ccccc3F)C2)c1 (centres undefined)	-9.3%
CN1C(=O)c2cccn2CC1C(=O)N1CCc2ccccc21 (centres undefined)	1.6%
COc1cccc(Nc2ncc3c(n2)C(C)(C(=O)NCCc2ccccn2)CC3)c1 (centres undefined)	-2.2%[70.6 µM]
COc1ccc(C(=O)N2CC(c3nnc(C(C)C)o3)C3(CCOCC3)C2)cn1 (centres undefined)	2.1%
CN(C)C[C@@H]1CN(Cc2ccccn2)C[C@H]1NC(=O)c1cccc(Cl)c1	7.4%

# Four records picked at random from the list so far, as already listed:
mol	NPR1 antag
CCOCCn1nc(C)cc1C(=O)N1C[C@@H](CN2CCCCC2)[C@@H](CO)C1	6.9%
CCc1ccc(C(=O)N2CCC[C@H]2c2nc(-c3ccc(OC)c(OC)c3)no2)cc1	-12.4%
COc1cccc(C(=O)N2CC(c3nnc(C(C)C)o3)C3(CCOCC3)C2)c1OC (centres undefined)	1.4%
O=C(CCn1cc(Cl)cn1)N1CCOC(c2ccc(Cl)cc2)C1 (centres undefined)	?
